Screening results as filed in PubChem BioAssay.
RanGTP-Imp inh: inhibitors of RanGTP-importin-beta interaction, primary screen, biochemical, FRET, CFP-Ran, YFP-importin-beta, homogeneous | inhibition, % (no concentration beside the values) | 300,000 tested, 1.1% active | cell-free CFP-Ran/YFP-importin-beta FRET ratio | AID 2216;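 active = most replicates above 15%; inconclusive = exactly half above 15%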;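 note: 0% = DMSO wells and 100% = Ran loaded with GDP instead of GTP; wells of about 40 µL received 100 nL stock; the first replicate is given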
T cruzi inh: blocks replication of Trypanosoma cruzi | T. cruzi beta-gal in NIH3T3, luminescence, 90 h | inhibition, % (no concentration beside the values) | 300,000 tested, 1.4% active;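 active = mean inhibition across valid replicates above about 55%, limit read from the data; inconclusive = mean below that limit but half or more replicates reach it; inactive = mean below it, under half of replicates reach it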;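 note: signal also drops with host cell toxicity which is not excluded here; 0% = plate median of DMSO wells and 100% = zero luminescence signal; higher percent means less beta-gal luminescence so fewer parasites; stock transfer was 50 nL into about 50 µL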
Calb FLC: C. albicans growth modulation with fluconazole; C. albicans CaCi-2 (fluconazole-resistant clinical isolate) + fluconazole, Alamar Blue growth, 48 h; growth inhibition, % (concentration not given with the values); 300,000 tested, 0.57% active; AID 1979;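 active = most replicates above 75%; inconclusive = exactly half above 75%; inactive = most below 75%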;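 note: all wells also contain fluconazole at 8 µg/ml as a sub-toxic cotreatment; 0% = median of DMSO wells and 100% = median of geldanamycin control wells; wells of about 8 µL received 7.5 nL stock; the first replicate is given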
Vif TR-FRET: HIV-1 Vif–A3G interaction blockers – biochemical, TR-FRET, GST-Vif 1-94, biotin-A3G peptide, dose response retest, primary screen (AID 1117319); TR-FRET GST-Vif / biotin-A3G peptide binding; higher % means a stronger effect; test concentration not given here; strong numbers were not always called active; inhibition, %, or IC50 in µM where a hit was titrated; 260,000 tested, 0.57% active;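 active = above the screen mean plus three standard deviations and confirmed in dose response; inconclusive = results disagree or hit not tested in dose response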;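 note: Vif residues 1-94 fused to GST binding biotinylated APOBEC3G peptide 110-148; 0% = full assay without inhibitor and 100% = GST in place of GST-Vif; retest series ran down from 100 µM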
LANA-H2A inh: blocks KSHV LANA binding to histone H2A/H2B. cell-free LANA-H2A/H2B peptide, fluorescence polarization. inhibition, % (no concentration beside the values). 320,000 tested, 0.6% active. AID 2629; in the data active = inhibition mostly above about 10%, no sharp cut-off; inactive = mostly below about 6.7%;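 note: stock transfer was 7.5 nL into about 10 µL; 0% = median of vehicle wells and 100% = median of positive control wells; one replicate is shown; the record names a cut of 25% in any replicate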
Beta cell apopt: blocks beta cell apoptosis; INS-1E cytokine-induced death, ATP luminescence, 48 h; percent of positive-control rescue, neutral wells zero; protection from apoptosis, % (test concentration not listed); 300,000 tested, 0.8% active; AID 435005;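 active = all replicates at 75% or more, or half of them and the mean; inconclusive = half reach 75% but not the mean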;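 note: 0% = cytokine-treated negative control wells and 100% = positive control rescue; higher means more ATP so stronger rescue from cytokine killing; wells of about 40 µL received 100 nL stock; the first replicate is given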
A1 inh: inhibitors of the anti-apoptotic protein A1, read as caspase activation; MEF A1-2A-BIM cells, Caspase-Glo 3/7 luminescence, 3 h; percent of clofoctol response, vehicle zero; caspase activation, % (no concentration beside the values); 330,000 tested, 0.066% active; AID 2462;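 active = over half of replicate activation scores above 10%, or exactly half above 10 with the replicate mean above 10; inconclusive = replicate mean below 10 yet half the replicates above 10; inactive = over half of replicates below 10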;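 note: wells of about 30 µL received 50 nL stock; many hits fall short of the cut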
AF4-AF9 inh: MLL-AF4/AF9 protein interaction inhibition; P42568; AlphaScreen, biotin-AF4 peptide binding to FLAG-AF9; inhibition, % at 10 µM; 350,000 tested, 0.47% active;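 active = every replicate reaching a set inhibition limit, whatever the replicate mean, cut at about 25% in these data; inconclusive = mean inhibition reaches that limit but some replicates miss it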;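 note: 0% = plate neutral control median and 100% = total signal loss; the record names both 10 and 1 µM as test concentration; the first replicate is given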
Target sequence (P42568 whole entry, looked up): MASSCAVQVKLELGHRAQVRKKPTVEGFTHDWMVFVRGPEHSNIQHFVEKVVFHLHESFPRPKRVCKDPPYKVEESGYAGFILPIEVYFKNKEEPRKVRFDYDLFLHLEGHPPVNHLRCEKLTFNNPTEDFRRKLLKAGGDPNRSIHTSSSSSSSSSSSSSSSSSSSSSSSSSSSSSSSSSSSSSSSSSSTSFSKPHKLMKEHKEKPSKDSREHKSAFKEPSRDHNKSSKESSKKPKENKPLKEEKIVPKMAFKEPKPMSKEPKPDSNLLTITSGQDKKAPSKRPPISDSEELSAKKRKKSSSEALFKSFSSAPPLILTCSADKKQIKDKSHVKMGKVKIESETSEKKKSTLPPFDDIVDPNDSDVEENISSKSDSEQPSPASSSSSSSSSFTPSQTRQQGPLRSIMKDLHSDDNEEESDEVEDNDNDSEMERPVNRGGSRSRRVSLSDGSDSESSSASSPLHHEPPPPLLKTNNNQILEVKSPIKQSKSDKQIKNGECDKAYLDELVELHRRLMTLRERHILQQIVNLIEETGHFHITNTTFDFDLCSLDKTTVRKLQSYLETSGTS
Active calls of the source: *; ? = inconclusive; . = no result given. Hits appear at their usual frequency; 4.3% or so of the library scored in one or more.

SMILES	RanGTP-Imp inh	T cruzi inh	Calb FLC	Vif TR-FRET	LANA-H2A inh	Beta cell apopt	A1 inh	AF4-AF9 inh
COc1ccc(C2CCCN2C(=O)Nc2cccc(C(C)=O)c2)cc1OC (stereo not drawn)	-12	2	-2	1%	2.5	-1	0.8	.
C#CCOCCOCCOCCNc1nc(N2CCOCC2)nc(N2CCN(C(=O)[C@H](C)n3cc(CCCN=C(N)N)nn3)CC2)n1	-3.4	-20	-1	-2%	-8.1	3	2.4	1.0
COCCn1c(SCC(=O)Nc2ccc(Cl)cn2)nc2ccccc21	1.1	9	5	-7%	-6.5	3	1.0	-5.0
C=CCCN(C(CC(C)C)C(=O)OC)S(=O)(=O)c1cc(Br)ccc1Br (stereo not drawn)	3.2	-22	-2	6%	-11	1	0.3	.
CC(=O)Nc1ccc(S(=O)(=O)N2CCC(C(=O)NCc3ccco3)CC2)cc1	5.3	-17	-2	3%	-4.9	.	0.0	-0.9
NC(=O)COc1ncn(-c2ccccc2)n1	4.5	0	5	0%	1.3	-5	0.6	.
CCCNC(=O)c1ccc2c(=O)c(O)c(-c3ccc(C)cc3)[nH]c2c1	-39	-20	-5	11%	-4.1	82*	-0.3	5.6
CC(/C=N\NC(=O)Cn1c(C)nc2ccccc21)=C\c1ccccc1	3.6	-23	-3	29%	1.0	32	-0.8	.
COc1ccc(C(=O)c2c(N)sc3c2CCN(C(=O)OC(C)(C)C)C3)cc1	0.8	8	9	0%	3.9	-9	0.0	1.7
CCCNC(=O)C(Cc1ccc(Br)cc1)NC(=O)c1ccc(C#N)cc1 (stereo not drawn)	.	.	.	.	2.0	-2	-0.2	-10.0
O=C(N/N=C/c1cccc(O)c1)c1cc(-c2ccc3c(c2)OCO3)n[nH]1	.	-5	18	?	4.9	22	-1.4	-3.5
CCOC(=O)CNC(=S)SC	-3.3	.	-3	-4%	1.5	4	-0.5	-4.7
O=C(O)CCn1c(O)c(C=C2N=c3ccccc3=N2)sc1=S	-1.7	-25	0	-8%	5.2	0	-2.3	2.7
N=C(N)c1ccc(OCCCCCOc2ccc(C(=N)N)cc2)cc1	-0.8	15	.	25%	-2.9	22	-0.6	5.8
Oc1ccc(C[C@@H]2CNCCN2CCc2cccc(F)c2)cc1	-3.3	-2	-1	.	3.6	2	-0.3	3.2
CCCCn1c(N)c(N(CCC(C)C)C(=O)COC(=O)c2sccc2C)c(=O)[nH]c1=O	.	.	.	-5%	-4.8	-4	0.6	-7.3
O=C(c1ccc(COc2c(F)c(F)cc(F)c2F)o1)N1CCN(c2ccccc2)CC1	-1.3	19	0	7%	-0.3	-2	0.4	.
OCCc1c[nH]c2ccccc12	3.3	2	-5	.	3.7	.	1.3	-1.0
Cc1ccc(C(=O)NCCN2CCN(C(=O)c3ccc(C)c(C)c3)CC2)cc1C	-1.7	-3	-1	.	.	.	.	-1.1
CCc1ccc(NC(=S)N2CCN(S(=O)(=O)c3ccccc3)CC2)cc1	.	.	-13	.	1.1	-4	2.6	0.1
Cc1c(S(=O)(=O)NCCc2ccccc2)c(=O)n(C)c(=O)n1C	1.7	0	4	-1%	3.9	-2	0.1	-7.0
O=C(c1ccc(-n2cnnn2)cc1)N(C1CCCCC1)C1CCCCC1	4.2	2	-9	-1%	4.3	2	0.4	-8.4
CCCc1nc2ccccc2c(C(=O)O)c1CC	5.8	3	3	-3%	-0.7	-2	0.6	.
NC(=O)c1ccccc1NS(=O)(=O)Cc1ccccc1	2.5	9	-2	1%	2.7	0	0.3	.
CS(=O)(=O)Nc1ccccc1C(=O)N1CCOCC1	-1.1	-13	-6	0%	12	-5	0.3	.
The results go on.
SMILES	RanGTP-Imp inh	T cruzi inh	Calb FLC	Vif TR-FRET	LANA-H2A inh	Beta cell apopt	A1 inh	AF4-AF9 inh
O=C(COC(=O)C12CC3CC(CC(O)(C3)C1)C2)NC(=O)NCc1ccco1	0.2	0	-1	10%	7.1	0	0.0	.
CCc1c(C)nc2[nH]nc(-c3ccccc3)n2c1=O	-2.4	.	-9	-7%	3.6	-3	-1.9	.
CCOC(=O)c1c(-c2ccc(OC)cc2)oc2ccc(O)cc12	-0.2	-10	-1	4%	2.1	-4	-1.0	-6.0
COc1cc(C2SCC(=O)N2Cc2ccccc2)ccc1O (stereo not drawn)	17*	-6	10	-3%	-0.5	-5	0.6	2.0
CCOC(=O)c1sc(=NC(=O)c2ccc(S(=O)(=O)N(C)c3ccccc3)cc2)n(C)c1C	0.9	4	4	-5%	-2.7	2	0.0	-0.4
COc1ccc(C(=O)O/N=C(\C)c2nccs2)cc1	4.2	-21	2	-7%	-1.6	-6	-1.1	1.7
CC(C)C[C@@H](CN=[N+]=[N-])N1CCN(Cc2ccccc2)CCC1=O	0.6	-14	-5	.	2.9	-7	0.9	-1.4
COc1ccc(Nc2ncc(C(=O)N3CCC(C(N)=O)CC3)c3ccccc23)cc1	0.4	-7	-8	0%	10.0	-6	-0.2	.
Cn1cccc1CC(=O)NNC(=S)Nc1ccc(F)cc1	-4.4	-4	-9	27%	-6.4	4	-0.1	3.3
Cc1cc(C)c(S(=O)(=O)NCc2cn3c(C)csc3n2)c(C)c1	-1.9	6	2	1%	2.8	0	0.2	.
COc1cc(/C=N/n2c(-c3cc(C)[nH]n3)n[nH]c2=S)ccc1O	0.6	-5	1	-9%	6.5	12	1.0	-8.2
CCn1c(CCC(=O)O)nc2cc(S(=O)(=O)N3CCOCC3)ccc21	.	.	.	29%	1.2	-5	0.2	-1.5
COc1ccccc1CNc1ncnc2sccc12	-4.8	-22	1	.	-1.7	97*	-0.4	0.8
CCOC(=O)c1cc(-c2ccccc2)sc1NC(=O)C(C)N1C(=O)c2ccccc2C1=O (stereo not drawn)	-2.1	0	4	-20%	3.6	3	0.2	0.7
Cc1nc(N2CCN(Cc3ccccc3)CC2)nc2c1C(=O)CCC2	4.1	22	3	74%	-1.8	6	-0.8	.
CN(C1CCCCC1)S(=O)(=O)c1cc2c(cc1Cl)NC(=O)CO2	-1.3	19	-4	2%	3.3	3	-0.4	-10
Cc1ccc(OCCN2C(=O)CSC2=O)cc1	-4.4	6	-8	-2%	3.3	-13	-0.6	.
CCN1C(=O)/C(=C/c2c(C)nn(C)c2C)SC1=S	?	-5	14	-5%	0.8	0	0.1	11
O=C(c1cc(COc2ccc(F)cc2Cl)on1)N1CC[C@@H]2CCCC[C@H]2C1	0.2	19	13	.	-5.4	-2	0.6	1.5
CSc1ncccc1C(=O)OCC(=O)NCc1ccccc1	.	.	.	-14%	3.5	-5	0.8	3.0
Cc1ccccc1OCCn1c(=S)[nH]c2c(N)ncnc21	-2.0	4	-7	3%	-7.6	6	-0.5	0.2
COc1ccccc1NC(=O)CN1CCN(CC(=O)Nc2ccc(C)c(F)c2)CC1	27*	15	10	-6%	1.5	-1	0.1	-0.6
CC(C)CCN1CCN(Cc2cnc(N3CCCC3)s2)CC1CCO (stereo not drawn)	-2.5	19	-2	-6%	.	-2	2.0	-1.3
O=C(N/N=C/c1ccccn1)c1ccc2nc[nH]c2c1	6.2	-3	-3	?	-1.3	1	0.7	-1.9
CC(=O)c1cn(C)c(=O)[nH]c1=O	-0.3	-18	17	5%	0.3	3	-0.2	-9.1
Remaining list, next part.
SMILES	RanGTP-Imp inh	T cruzi inh	Calb FLC	Vif TR-FRET	LANA-H2A inh	Beta cell apopt	A1 inh	AF4-AF9 inh
CCOC(=O)CNC(=O)CSc1nnc(NC(=O)c2ccc(C)cc2)s1	-1.9	-3	-8	-3%	-3.5	0	-5.9	-1.1
CCc1nnc(NC(=O)CSc2nc3cc(OC)ccc3cc2C)s1	2.4	28	-1	-38%	-10	3	-0.4	-0.6
Cc1ccc(NC(=O)COC(=O)CCC2CCCC2)cc1S(=O)(=O)N1CCOCC1	.	.	.	-10%	4.8	-8	-0.4	-0.8
COc1cccc(NC(=O)CN(C)C(=O)c2cc(-c3ccccc3)nc3ccccc23)c1	6.3	1	7	-1%	-9.2	0	-0.6	-4.4
Clc1cccc(CN2CCN(c3nc4nonc4nc3NC3CC3)CC2)c1	0.5	26	9	19%	0.0	10	1.5	4.7
COC(=O)C(NC(=O)c1ccco1)(Nc1cc(C)ccn1)C(F)(F)F (stereo not drawn)	6.0	-2	-2	?	1.8	-35	-0.5	.
CC(C)Oc1cccc(C(=O)C2CCCN(C(=O)c3ccc4c(c3)OCO4)C2)c1 (stereo not drawn)	-1.6	2	-13	.	-1.2	1	-0.4	2.3
Cc1cccc(C(=O)NCC(=O)N2CCCCCCC2)c1	.	.	.	-3%	-2.5	-1	0.4	?
CCOc1ccc2nc(NS(=O)(=O)c3cccs3)sc2c1	0.1	15	17	-7%	0.9	-9	-0.5	-3.0
CC(C)(C)c1cc[n+](-c2[nH]c(=O)sc2/C=N/NC(=O)c2ccccc2[O-])cc1	4.1	-7	-18	.	8.5	-1	-0.2	-10
CCN(CC)S(=O)(=O)c1ccc(C(=O)Nc2nnc(NC(=S)Nc3ccccc3)s2)cc1	0.9	-13	0	-6%	-1.9	0	0.3	2.0
c1ccc(-c2cc3ccccc3cn2)cc1	.	.	.	.	-6.1	1	-14	-2.8
C=CCOc1ccc(C(=O)N(Cc2ccc(N(C)C)cc2)C2CCS(=O)(=O)C2)cc1 (stereo not drawn)	-1.2	5	-4	0%	-3.2	1	2.9	.
COc1ccc(CCN2C(=O)NC(NC(=O)C(C)(C)C)(C(F)(F)F)C2=O)cc1OC (stereo not drawn)	-0.1	-3	11	.	0.4	-7	2.0	0.1
Cc1ccc(S(=O)(=O)NC(C)(C)C)cc1C(=O)OC(C)C(=O)NC1CC1 (stereo not drawn)	-3.1	-2	8	-4%	-1.7	-1	-0.4	-2.8
O=C(NCc1ccco1)c1ccccc1NS(=O)(=O)c1ccc(Br)s1	-1.0	-10	108*	2%	0.5	14	0.8	.
Cc1ccc(OCCNC(=O)CCc2ccccc2)cc1C	4.0	6	5	.	-4.8	.	-0.7	1.5
O=c1c2ccccc2ncn1CCCCOc1ccc(Br)cc1	-1.7	24	-3	-8%	4.5	-17	-0.2	-0.4
Cc1ccc(NS(=O)(=O)c2ccc(NC(=O)CSc3ccc(Cl)cc3)cc2)c(C)c1	6.9	10	2	-4%	-2.8	-5	0.7	.
O=C(O)c1ccccc1CSc1nnc2c(n1)[nH]c1ccccc12	5.5	3	10	-16%	4.6	-2	-0.9	-19
Nc1nc(-c2ccccc2Br)cs1	-2.8	0	-9	20%	1.4	-10	-1.7	.
CCN1CCN(C(=O)Cn2c(=O)sc3ccccc32)CC1	1.5	-22	2	1%	-5.3	-1	-0.9	-7.0
COc1ccccc1CNC(=O)c1cn(C)c2ccc(S(=O)(=O)N3CCCC3)cc2c1=O	2.7	22	5	-14%	-1.6	11	0.0	-0.8
CCc1nnc(NC(=O)c2ccc(-c3ccc(C(C)=O)cc3)o2)s1	.	.	.	-1%	5.0	-1	-1.6	-0.8
COc1cccc(C(=O)Nc2cccc(-c3ccc(N4CCOCC4)nn3)c2)c1	-1.0	-8	4	2%	-0.4	13	-0.7	-10
CSc1nccc(NC(=O)c2ccc(C(C)(C)C)cc2)n1	4.6	-6	9	.	-2.8	3	-0.1	-1.1
Cc1cc(OCC(=O)Nc2ncn[nH]2)ccc1Cl	.	.	.	.	2.6	0	-2.4	1.5
O=S(=O)(N/N=C/c1ccc2c(c1)OCO2)c1ccc(Br)cc1	4.4	-3	5	.	3.2	-5	1.2	-2.0
COc1ccc(Nc2nc(C)nc3sc4c(c23)CCC4)cc1O	-3.0	-10	-3	-6%	2.4	7	-0.2	1.0
CC(=O)c1cccc(NC(=O)c2ccoc2C)c1	4.7	-13	11	8%	-0.2	-4	-0.9	0.2
